Cruzain Triton = inhibitors of Trypanosoma cruzi cruzain with detergent; purified cruzain, Z-FR-AMC fluorescence, 0.01% Triton; hit rate 0.43% among 200,000; P25779; Potency, µM, without a hit: max response, negative = inhibition, hits mostly inhibitors; active means well fitted curve in the direction sought with a large enough effect; inconclusive means small, poorly fitted or top-dose-only effect, or another doubt; inactive means no such curve, though single readings can be large; an effect the other way counts as inactive or inconclusive;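 further: plate controls were neutral wells for no effect and buffer without enzyme for full effect; nearly all actives have a fitted effect of over 40% in size; top concentration of the series not given in the record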
Target sequence (P25779 123-467 limits assumed): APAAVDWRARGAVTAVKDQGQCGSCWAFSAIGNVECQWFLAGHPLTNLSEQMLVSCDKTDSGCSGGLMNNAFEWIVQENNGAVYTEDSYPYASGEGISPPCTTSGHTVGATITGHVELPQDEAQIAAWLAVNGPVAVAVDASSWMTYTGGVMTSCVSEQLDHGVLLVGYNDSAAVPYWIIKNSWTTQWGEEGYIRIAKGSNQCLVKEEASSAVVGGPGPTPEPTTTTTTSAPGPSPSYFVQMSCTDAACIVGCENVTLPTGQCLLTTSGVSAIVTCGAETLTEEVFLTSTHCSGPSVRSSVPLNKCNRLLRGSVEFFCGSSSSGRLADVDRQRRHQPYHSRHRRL
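Sodium acetate buffer (100 mM, pH 5.5) containing 5 mM DTT and 0.01% Triton X-100 hosted 1.5 nM cruzain and test compound for 15 min at room temperature. Cleavage of 2 uM Z-FR-AMC was then tracked by fluorescence.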
NS1 function inh = blocks influenza NS1 protein function | S. cerevisiae slowed by influenza A NS1, growth recovery by OD600 | Potency, µM (highest dose often 46.1 µM), inactives show at the highest dose activity, positive = more growth | hit rate 0.4% among 270,000; further: actives are rising curves; nearly all actives have a fitted effect of over 50% in size
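OD600 was taken as the measure of yeast growth restored by compound in an NS1-expressing S. cerevisiae strain. Cells had been washed out of glucose medium and diluted 1:100 into galactose -URA medium, pH 6.0.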
Cruzain noTriton = blocks cruzain activity in detergent-free assay | P25779 | purified cruzain, Z-FR-AMC fluorescence, no detergent | AID 1476 | Potency, µM, without a hit: max response, negative = inhibition, usual class: inhibitors | hit rate 2.3% among 200,000; active means well fitted curve in the direction sought with a large enough effect; inconclusive means small, poorly fitted or top-dose-only effect, or another doubt; inactive means no such curve, though single readings can be large; an effect the other way counts as inactive or inconclusive;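 further: plate controls were enzyme without inhibitor for no effect and buffer without enzyme for full effect; nearly all actives have a fitted effect of over 40% in size; top concentration of the series not given in the record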
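Purified cruzain at 1.5 nM, pre-incubated 15 min with compound at room temperature in 100 mM sodium acetate pH 5.5, 5 mM DTT, 0.00005% Triton X-100. Reaction started with 2 uM Z-FR-AMC; AMC fluorescence increase over 60 s gives rate.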
SARS PLP yeast = blocks SARS-CoV papain-like protease in a yeast assay; S. cerevisiae expressing SARS-CoV PLpro, growth rescue; control for the full effect not named in the record; Potency, µM (top dose mostly 32.9 µM), for the others: at the highest dose activity, positive = growth rescue; hit rate 0.19% among 330,000; AID 485353; further: 0% is about no effect; nearly all actives have a fitted effect of over 55% in size; growth read by luminescence after 48 h
LASV entry inh = inhibitors of Lassa virus binding or cell entry. hit rate 1.2% among 300,000. Potency, µM (doses to about 37.9 µM), for the others: at the top dose activity change, negative = inhibition, usual class: inhibitors. Lassa virus pseudotype entry inhibition, cell reporter; control for the full effect not named in the record; active means well fitted inhibition curve with a large enough effect; inconclusive means small, poorly fitted or top-dose-only effect, or effect the other way; inactive means flat fitted curve, though single readings scatter; tested in HEK293 cells; further: on the % scale 0 is the no-effect control and ±100 the full control effect; nearly all actives have a fitted effect of over 50% in size; luciferase read-out
Marburg entry inh = blocks Marburg virus binding to or entry into cells; Marburg virus pseudotyped entry inhibition, cell reporter; control for the full effect not named in the record; about a third of the inactives were read at about 46 µM; Potency, µM (series often up to 37.8 µM), for the others: at the highest dose activity change, negative = inhibition, usual class: inhibitors; hit rate 1.8% among 300,000; active = well fitted inhibition curve with a large enough effect; inconclusive = small, poorly fitted or top-dose-only effect, or effect the other way; inactive = flat fitted curve, though single readings scatter; tested in HEK293 cells; about a fifth of its hits are not listed in these tables; further: on the % scale 0 is the no-effect control and ±100 the full control effect; luciferase read-out
RE007 growth inh = less growth of the S. pombe RE007 Vpr strain. S. pombe RE007 Vpr strain, BacTiter-Glo ATP luminescence, 24 h; control for the full effect not named in the record. Potency, µM (series often up to 92.2 µM), inactives show at the highest dose activity change, negative = less growth. hit rate 0.21% among 360,000; active = well fitted falling curve with a large enough effect; inconclusive = small, poorly fitted or top-dose-only effect; inactive = no such curve, though single readings can be large or run the other way;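 further: on the % scale 0 is the no-effect control and ±100 the full control effect; nearly all actives have a fitted effect of over 50% in size; the assay follows cell death caused by Vpr and the record does not say whether a fall means rescue or toxicity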
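Fission yeast RE007 carrying one integrated HIV-1 vpr copy, seeded at OD 0.01 in PMG+AL medium with 23 nL pinned compound. Grown 24 h at 30 degrees; viability read by BacTiter-Glo luminescence after 5 min.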
StopGo reporter = FMDV 2A StopGo reporter, luciferase signal | human cells with a luciferase reporter of 2A StopGo recoding; control for the full effect not named in the record | Potency, µM (titrated, usually from 57.9 µM), for inactives: top-dose signal change, negative = less light | hit rate 1.2% among 410,000 | AID 1159524; active = well fitted falling curve with a large enough effect; inconclusive = small, poorly fitted or top-dose-only effect; inactive = no such curve, though single readings can be large or run the other way; tested in HEK293T cells; further: on the % scale 0 is the no-effect control and ±100 the full control effect; nearly all actives have a fitted effect of over 45% in size; luciferase light after 4 h
* = called active by the depositor; [ ] = another dose, or the depositor's remark. Unless noted, the call rests on the fitted dose curve; in most records, active means well fitted rising curve with a large enough effect; inconclusive means small, poorly fitted or top-dose-only effect; inactive means no such curve, though single readings can be large or run the other way. Potency means the concentration at half of the fitted maximal effect.

The opening two entries as a preview:
Screening Cc1cc(C(=O)N2CC=C(c3ccccc3)CC2)c2ccccc2n1 returned SARS PLP yeast 2%, LASV entry inh inconclusive, Marburg entry inh inconclusive, RE007 growth inh 14% and StopGo reporter inconclusive.
CCc1cccc2c1NC(=O)[C@]21[C@@H]2C(=O)N(Cc3ccccc3)C(=O)[C@@H]2[C@@H]2CCCN21 was read as Cruzain Triton -9.9%, NS1 function inh -15%, Cruzain noTriton inconclusive, SARS PLP yeast -1%, LASV entry inh -2%, Marburg entry inh inconclusive, RE007 growth inh 4% and StopGo reporter -10%.

All compounds of this part (from the top)
Screening Cc1cc(C(=O)N2CC=C(c3ccccc3)CC2)c2ccccc2n1 returned SARS PLP yeast 2%, LASV entry inh inconclusive, Marburg entry inh inconclusive, RE007 growth inh 14% and StopGo reporter inconclusive.
CCc1cccc2c1NC(=O)[C@]21[C@@H]2C(=O)N(Cc3ccccc3)C(=O)[C@@H]2[C@@H]2CCCN21 was read as Cruzain Triton -9.9%, NS1 function inh -15%, Cruzain noTriton inconclusive, SARS PLP yeast -1%, LASV entry inh -2%, Marburg entry inh inconclusive, RE007 growth inh 4% and StopGo reporter -10%.
`C#CCN(CC=C)C(=O)C1CCC(=O)N(CCCc2ccccc2)C1` (stereo not given) gave NS1 function inh 7%, SARS PLP yeast 0%, RE007 growth inh 3% and StopGo reporter 2%.
`CCc1cccc(-n2c(=O)c3cccnc3n2CC(=O)Nc2ccc(F)c(C)c2)c1` gave Cruzain Triton -13%, Cruzain noTriton -8%, LASV entry inh inconclusive and StopGo reporter -23%.
`CCOc1ccc(NC(=O)N(Cc2ccc(C)cc2)Cc2ccccn2)cc1` gave NS1 function inh -9%, SARS PLP yeast -2%, RE007 growth inh -5% and StopGo reporter -10%.
For NC(=S)N=Nc1c(O)[nH]c2c(Cl)cc(Cl)cc12 the results were LASV entry inh inconclusive, Marburg entry inh inconclusive, RE007 growth inh -5% and StopGo reporter -16%.
For Cc1nc(SCC(=O)N2CCOCC2)c2c(=O)n(C)c(=O)n(CC(C)C)c2n1 the results were SARS PLP yeast inconclusive, LASV entry inh -15%, Marburg entry inh 1%, RE007 growth inh 4% and StopGo reporter -8%.
Cc1cc(F)ccc1NCC(=O)Nc1ccccc1Br was read as Cruzain Triton -3.8%, NS1 function inh -11%, Cruzain noTriton -6%, SARS PLP yeast -41%, LASV entry inh 16%, Marburg entry inh 18%, RE007 growth inh -14% and StopGo reporter 28%.
For CC(Nc1ccc([N+](=O)[O-])cc1[N+](=O)[O-])c1ccccc1 (stereo not given) the results were LASV entry inh 0%, Marburg entry inh -12%, RE007 growth inh 27% and StopGo reporter inconclusive.
Screening COc1cccc(Nc2nc3c(S(=O)(=O)c4cc(C)ccc4C)nnn3c3ccsc23)c1 returned Cruzain Triton -1.5%, Cruzain noTriton -6%, LASV entry inh 9%[46.1 µM] and StopGo reporter -13%.
Screening Cc1cccc(NC(=O)Cn2nc([N+](=O)[O-])c(Br)c2C)n1 returned SARS PLP yeast -1%, Marburg entry inh -7%[46.1 µM], RE007 growth inh -4% and StopGo reporter 2%.
`NNC(=O)/C(=C\c1cccs1)NC(=O)c1ccccc1` gave Cruzain Triton -12%, NS1 function inh 27%, Cruzain noTriton 1%, SARS PLP yeast 9%, LASV entry inh inconclusive, Marburg entry inh 8%, RE007 growth inh 0% and StopGo reporter -19%.
Screening O=C(CCCn1c(=S)[nH]c2cc3c(cc2c1=O)OCO3)N1CCc2ccccc2C1 returned Cruzain Triton 1.2%, NS1 function inh 7%, Cruzain noTriton -17%, SARS PLP yeast 4%, LASV entry inh 2%, Marburg entry inh 8%, RE007 growth inh 3% and StopGo reporter -11%.
For CCOC(=O)CSc1nnc(NC(=O)c2cc([N+](=O)[O-])cc([N+](=O)[O-])c2)s1 the results were Cruzain Triton -6.3%, NS1 function inh -32%, Cruzain noTriton inconclusive, SARS PLP yeast -3%, LASV entry inh 19%, Marburg entry inh -1%, RE007 growth inh -15% and StopGo reporter 35µM*.
CCOc1ccc(NC(=O)CN2CCN(S(=O)(=O)c3ccc(OC)cc3)CC2)cc1 was read as Cruzain Triton -1.7%, Cruzain noTriton 5%, LASV entry inh -15%[46.1 µM] and StopGo reporter -14%.
`COc1ccc(C2(CO)OC(CO)C(O)C2O)cc1` (stereo not given) gave LASV entry inh -15%[46.1 µM], Marburg entry inh 22%, RE007 growth inh -7% and StopGo reporter -6%.
CCOC(=O)c1scc(-c2ccccc2)c1S(=O)(=O)Nc1cc(Cl)c(OC)cc1OC was read as Cruzain Triton -4.1%, Cruzain noTriton inconclusive, LASV entry inh -17%[46.1 µM] and StopGo reporter 26%.
For O=C(NCCOC(=O)c1cccs1)c1cccnc1 the results were Cruzain Triton 1.9%, NS1 function inh -48%, Cruzain noTriton 2%, SARS PLP yeast 5%, LASV entry inh 13%, Marburg entry inh 1%, RE007 growth inh 1% and StopGo reporter 23%.
`COc1ccccc1CCNC(=O)C(=O)NCC(c1cccs1)S(=O)(=O)c1ccc(C)cc1` (stereo not given) gave Cruzain Triton -2.9%, Cruzain noTriton -11%, LASV entry inh -12%[46.1 µM] and StopGo reporter 0%.
COc1ccccc1CNC(=O)CN1CCN(c2ccc(C(C)=O)cc2)CC1 was read as NS1 function inh -5%, SARS PLP yeast -3%, LASV entry inh -21%[46.1 µM], Marburg entry inh inconclusive, RE007 growth inh -12% and StopGo reporter 8%.
Screening COc1ccc(CNC(=O)c2sc3nc4c(c(C(F)(F)F)c3c2N)CCC4)cc1OC returned Cruzain Triton -16%, NS1 function inh -13%, Cruzain noTriton inconclusive, SARS PLP yeast -9%, LASV entry inh -1%, Marburg entry inh inconclusive, RE007 growth inh -1% and StopGo reporter inconclusive.
CC(=O)c1sc(-c2ccccc2)nc1C was read as NS1 function inh -3%, SARS PLP yeast 1%, LASV entry inh 3%, Marburg entry inh 6%, RE007 growth inh -21% and StopGo reporter 45%[activator].
Screening CCCCc1cc(=O)oc2cc(OCC(=O)N(CC)CC)ccc12 returned Cruzain Triton 2.1%, NS1 function inh -16%, Cruzain noTriton 12%, SARS PLP yeast -4%, LASV entry inh 3%, Marburg entry inh inconclusive, RE007 growth inh -11% and StopGo reporter 17%.
Screening O=[N+]([O-])c1ccc(-n2nnnc2-c2ccccc2)c([N+](=O)[O-])c1 returned Cruzain Triton -12%, NS1 function inh -12%, Cruzain noTriton -16%, SARS PLP yeast -24%, LASV entry inh inconclusive, Marburg entry inh 15µM* and StopGo reporter 32µM*.
For CCOc1ccc(C2c3c(oc4ccc(C)cc4c3=O)C(=O)N2Cc2ccc3c(c2)OCO3)cc1OC (stereo not given) the results were Cruzain Triton -0.3%, Cruzain noTriton 9%, LASV entry inh -8%[46.1 µM], Marburg entry inh 15%[46.1 µM] and StopGo reporter 12%.
Screening COc1ccc(CNC(=O)c2cnn3c(C)c(Cc4ccc(F)cc4)c(C)nc23)cc1 returned Cruzain Triton 1.1%, Cruzain noTriton -9%, LASV entry inh inconclusive and StopGo reporter inconclusive.
COCCNC(=S)N/N=C/c1c(C)[nH]c2ccccc12 was read as Cruzain Triton -14%, NS1 function inh -5%, Cruzain noTriton -11%, SARS PLP yeast -8%, LASV entry inh -6%, Marburg entry inh inconclusive, RE007 growth inh 8% and StopGo reporter 20µM*.
`CCc1ccc(S(=O)(=O)N/N=C\c2ccc([N+](=O)[O-])o2)cc1` gave NS1 function inh -23%, SARS PLP yeast -7%, RE007 growth inh -13% and StopGo reporter 7%.
For CC(=N)c1c(O)cc(C)oc1=O the results were LASV entry inh 2%[46.1 µM], Marburg entry inh 2%[46.1 µM], RE007 growth inh -25% and StopGo reporter -10%.
Screening CCCN(CC(=O)Nc1ccccc1OC)C(=O)Cn1c(=O)oc2ccccc21 returned LASV entry inh -4%, Marburg entry inh 2%[46.1 µM], RE007 growth inh 1% and StopGo reporter 27%.
For O=C(CCCCCn1c(=S)[nH]c2cc3c(cc2c1=O)OCO3)NCCc1ccccc1 the results were NS1 function inh 1%, SARS PLP yeast -1%, RE007 growth inh 9% and StopGo reporter 3%.
`Cn1c(=O)n(CC(=O)O)c(=O)c2c1nc1n2CCCN1CCc1ccccc1` gave NS1 function inh 17%, SARS PLP yeast 2%, RE007 growth inh 8% and StopGo reporter -8%.
For COc1ccc(N2CCN(C(=O)C3CCC(Cn4c(=S)[nH]c5ccccc5c4=O)CC3)CC2)cc1 (stereo not given) the results were Cruzain Triton -7.7%, NS1 function inh -21%, Cruzain noTriton -23%, SARS PLP yeast -4%, LASV entry inh -21%, Marburg entry inh 10µM*, RE007 growth inh -7% and StopGo reporter -8%.
For O=C(C1CCCC1)N1CCC(CO)(Cc2ccccc2Cl)CC1 the results were NS1 function inh -8%, SARS PLP yeast -2%, LASV entry inh -6%, Marburg entry inh inconclusive, RE007 growth inh -2% and StopGo reporter -13%.
`Cc1nc([N+](=O)[O-])cn1CC(O)c1ccccc1` (stereo not given) gave NS1 function inh 0%, SARS PLP yeast 1%, LASV entry inh -22%[46.1 µM], Marburg entry inh inconclusive, RE007 growth inh 6% and StopGo reporter -14%.
`CC(=O)NC(Cc1ccc(F)c(F)c1)C(=O)NC1CCN(S(=O)(=O)c2ccc(C)cc2)CC1` (stereo not given) gave NS1 function inh -7%, SARS PLP yeast 2%, LASV entry inh -7%, Marburg entry inh 5%[46.1 µM], RE007 growth inh -12% and StopGo reporter -20%.
For Cc1ccc(N2CCN(CC(O)COc3ccccc3)CC2)cc1 (stereo not given) the results were NS1 function inh 2%, SARS PLP yeast 1%, LASV entry inh -3%[46.1 µM], Marburg entry inh -2%[46.1 µM], RE007 growth inh -13% and StopGo reporter -8%.
COc1ccc(CN(CC(=O)NC2CCCC2)C(=O)c2onc(C(N)=O)c2N)cc1 was read as Cruzain Triton 1.4%, NS1 function inh 4%, Cruzain noTriton 0%, SARS PLP yeast -1%, LASV entry inh 3%, Marburg entry inh inconclusive and RE007 growth inh -1%.
Screening CCOC(=O)C(=O)Nc1ccccc1C(=O)OC returned NS1 function inh -7%, SARS PLP yeast -1%, LASV entry inh -4%, Marburg entry inh 12%, RE007 growth inh 6% and StopGo reporter -10%.

Source: PubChem (National Center for Advancing Translational Sciences (NCATS))
